Screens as filed in PubChem BioAssay.
Ecoli growth: blocks Escherichia coli growth; 330,000 tested, 0.21% active; OD600, 23 h; active compounds read low; OD600 absorbance (no concentration beside the values);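 active = OD600 absorbance below the run mean of sample wells minus 3.6 SD, in any replicate, cut at about 0.56 in these data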;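 also: stock transfer was 300 nL into about 60 µL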
ALR H2O2 inh: blocks human ALR sulfhydryl oxidase activity; purified ALR, DTT oxidation, H2O2 HRP-luminol luminescence; inhibition, % (test concentration not listed); 290,000 tested, 3.8% active; AID 485317;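 active = mean and each replicate at 75% or more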;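 also: stock transfer was 7.5 nL into about 7.5 µL; 0% = neutral wells and 100% = wells with inactivated enzyme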
LANA-H2B inh: blocks KSHV LANA binding to histone H2A/H2B | Q9QR71 | cell-free LANA-H2A/H2B peptide, fluorescence polarization | inhibition, % (test concentration not listed) | 320,000 tested, 0.6% active | AID 2629; in the data active = inhibition mostly above about 10%, no sharp cut-off; inactive = mostly below about 6.7%;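 also: stock transfer was 7.5 nL into about 10 µL; 0% = median of vehicle wells and 100% = median of positive control wells; one replicate is shown; the record names a cut of 25% in any replicate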
Beta2AR agonist: agonists of human beta-2 adrenergic receptor inducing internalization. Am2.2-beta2AR cells, FAP receptor internalization, flow cytometry; reference of the scale not given here. P07550. 340,000 tested, 0.43% active. response, % (concentration not given with the values);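 active = response above a set limit, near 3 SD of response in nonfluorescent compounds, cut at about 42% in these data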;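 also: stock transfer was 100 nL into about 11 µL; a reference agonist was the positive control; negative values mostly stem from fluorescent compounds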
Target sequence (P07550 whole entry, looked up): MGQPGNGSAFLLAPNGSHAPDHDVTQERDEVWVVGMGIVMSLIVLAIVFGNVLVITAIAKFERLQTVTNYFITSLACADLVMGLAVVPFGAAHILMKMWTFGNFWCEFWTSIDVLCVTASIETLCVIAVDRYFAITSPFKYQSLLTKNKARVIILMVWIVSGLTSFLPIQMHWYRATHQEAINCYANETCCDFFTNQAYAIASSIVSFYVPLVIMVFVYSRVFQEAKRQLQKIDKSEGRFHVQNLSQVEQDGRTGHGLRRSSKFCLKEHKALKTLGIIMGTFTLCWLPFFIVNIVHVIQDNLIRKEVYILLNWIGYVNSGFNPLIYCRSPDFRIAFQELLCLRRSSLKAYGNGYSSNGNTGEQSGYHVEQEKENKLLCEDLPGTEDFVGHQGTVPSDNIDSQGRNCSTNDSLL
HNF4A DNA FP: change in binding of human HNF4 alpha to DNA. P41235. HNF4a-FITC DNA binding, fluorescence polarization, 1 h. activity change, % at 10 µM. AID 1224865. 360,000 tested, 0.3% active; in the data active = activity change above about 30%, passing the limit was not always enough;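 also: controls were the assay level and a saturating level of protein; the project sought stronger binding though the title names inhibitors; some compounds called inactive have numbers as strong as hits; positive values seem to mean higher polarization but the record does not say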
Target sequence (P41235 whole entry, looked up): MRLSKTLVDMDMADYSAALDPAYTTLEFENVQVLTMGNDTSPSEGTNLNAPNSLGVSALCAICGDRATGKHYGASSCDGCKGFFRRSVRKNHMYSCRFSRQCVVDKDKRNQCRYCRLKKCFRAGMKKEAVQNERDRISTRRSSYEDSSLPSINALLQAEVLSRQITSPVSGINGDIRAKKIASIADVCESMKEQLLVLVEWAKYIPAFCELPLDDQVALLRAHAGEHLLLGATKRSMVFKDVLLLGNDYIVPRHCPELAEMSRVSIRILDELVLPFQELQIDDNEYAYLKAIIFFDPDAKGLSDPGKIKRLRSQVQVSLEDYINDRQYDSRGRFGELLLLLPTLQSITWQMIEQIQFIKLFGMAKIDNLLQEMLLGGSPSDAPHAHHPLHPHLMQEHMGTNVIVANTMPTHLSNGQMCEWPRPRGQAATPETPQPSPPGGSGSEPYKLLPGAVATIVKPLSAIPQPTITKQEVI
FGF22 binding: FGF22 (human) thermal shift binding; calls only at 9.99 µM; 340,000 tested, 1.5% active; Q9HCT0; recombinant FGF22 thermal shift, SYPRO orange fluorescence; percent of sucrose octasulfate shift, DMSO zero;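 active = melting point raised past a set limit in the mean and every replicate; three in four hits are not shown here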
Target sequence (Q9HCT0 whole entry, looked up): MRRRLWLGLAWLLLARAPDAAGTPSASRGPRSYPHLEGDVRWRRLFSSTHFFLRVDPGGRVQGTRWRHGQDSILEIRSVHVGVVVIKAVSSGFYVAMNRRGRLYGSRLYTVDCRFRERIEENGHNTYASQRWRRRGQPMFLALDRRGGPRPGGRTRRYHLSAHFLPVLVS
UCH37 inh: inhibitors of human deubiquitinating enzyme UCH37; Q9Y5K5; purified proteasome/UCH37, Ub-AMC cleavage fluorescence; inhibition, % (no concentration beside the values); 330,000 tested, 0.33% active; AID 588478;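 active = mean of two replicates above 20%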;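 also: 0% = compound-free wells with enzyme and 100% = wells lacking proteasome; stock transfer was 100 nL into about 20 µL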
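Material: human UCH37 enzyme supplied as purified proteasome complex / Amount: 0.15 nM proteasome as dispensed / Buffer or medium: pH 7.4 Tris-HCl (50 mM) with ovalbumin, ATP-MgCl2, DTT / Times: preincubation 30 min, reaction 25 min, room temperature / Technique: AMC fluorescence from Ub-AMC cleavage, excitation 355 nm, emission 460 nm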
Active calls of the source: *; i = inactive; / = not tested or not shown; + = active, no number. The list is partial; count on the stated rates, not on these rows.

The line under a structure holds: Ecoli growth	ALR H2O2 inh	LANA-H2B inh	Beta2AR agonist	HNF4A DNA FP	FGF22 binding	UCH37 inh
- O=C(NC1CCCC1)C(c1ccc(F)cc1)N(Cc1ccc(F)cc1)C(=O)c1ccn[nH]1 (stereo unspecified)
  0.699	0.2	-4.5	5.2	0.5	/	6.2
- O=C1CC(/C=C/c2ccc(Cl)cc2)=Nc2ccccc2N1
  0.702	/	0.1	-15.1	3.5	/	5.4
- O=C(COC(=O)Cc1n[nH]c(=O)c2ccccc12)Nc1ccc(Cl)cc1F
  0.674	-9.0	-0.5	1.5	-4.1	i	4.2
- CN(C)c1nc2c(c(=O)[nH]c(=O)n2C)n1CCCc1ccccc1
  0.648	17.5	-1.5	0.9	2.7	i	1.7
- CCC1=NC(c2ccccc2Cl)N(O)C1(C)C (stereo unspecified)
  0.708	-14.2	-2.8	4.5	-0.3	i	-1.4
- CC(C)C(=O)Nc1cccc(C(=O)NCCc2ccc(S(N)(=O)=O)cc2)c1
  0.688	-1.0	-1.3	-5.3	-1.8	/	-0.1
- COc1cccc(CN2CCN(CCCc3ccccc3)C(CCO)C2)c1OC (stereo unspecified)
  0.698	/	1.6	-0.9	3.2	i	1.8
- Cc1ccc(N(C(C)C(=O)Nc2cc(Cl)ccc2Oc2ccccc2)S(C)(=O)=O)cc1 (stereo unspecified)
  0.683	3.0	2.1	-2.2	-1.3	i	1.3
- O=C(N/N=C/c1cc2ccccc2[nH]1)c1ccccc1Cl
  /	11.6	-0.1	-3.5	1.8	i	/
- O=C(O)c1ccc(F)c(S(=O)(=O)Nc2ccccc2Cl)c1
  0.746	0.4	-3.3	0.0	-0.7	i	3.0
- O=C(NCCCN1CCOCC1)c1cc(-c2ccc(Cl)cc2)on1
  0.676	-0.4	-1.4	-4.6	-1.8	i	3.4
- CC(=O)Nc1cc(S(=O)(=O)Nc2ccccc2)c(C)cc1C
  0.8	4.5	6.3	46.8*	2.3	/	1.8
- CCCCOn1c(C)c(C(C)=O)c2c3no[n+]([O-])c3ccc21
  0.677	-3.2	12.8*	-15.2	3.6	i	2.1
- COc1cccc(CCNc2ccc(N3C(=O)CC(C)C3=O)cc2[N+](=O)[O-])c1 (stereo unspecified)
  0.693	-13.4	-3.2	3.6	2.1	i	4.5
- COc1ccc(NC(C)=O)cc1NC(C)C(=O)Nc1ccc(F)cc1 (stereo unspecified)
  0.704	25.6	-3.5	2.3	0.2	/	0.2
- COCCn1c(SCC#N)nnc1-c1ccc([N+](=O)[O-])cc1
  0.646	-6.3	0.8	-7.9	2.9	/	0.4
- CCOC(=O)CC1ON(C)C(=O)N1c1ccc(Cl)cc1Cl (stereo unspecified)
  0.742	/	/	2.0	-0.6	/	5.7
- CC(=O)Nc1cc(NC(C)=O)cc(-c2nc3ccccc3[nH]2)c1
  0.702	-12.5	-2.3	-15.3	3.0	/	-0.6
- C/C(O)=C/c1nc2ccccc2[nH]c1=O
  0.691	2.4	-1.9	-9.2	-4.4	i	-19.5
- COc1ccc(-c2ccc(SCC(=O)NC3CCCC3)nn2)cc1OC
  0.689	-11.2	6.5	9.1	2.2	i	4.6
- Cc1ccc(-c2nnc(-c3ccc(Br)cc3)o2)o1
  0.706	-1.1	7.9	-3.5	2.0	/	-18.0
- O=C1/C(=C\c2cccc(O)c2)SC(=S)N1Cc1ccccc1
  0.67	7.7	2.3	9.6	0.2	i	3.5
- OC(CNc1ncnc2sccc12)c1ccccc1 (stereo unspecified)
  0.705	-1.4	4.7	0.2	0.5	i	0.8
- O=C(NNC(=O)C1CCN(S(=O)(=O)c2ccccc2C(F)(F)F)CC1)c1ccccc1O
  0.685	7.8	-13.1	-5.2	-1.1	+	-15.6
- Cc1ccc(C(=O)Nc2cccc(C(=O)N3CCOCC3)c2)cc1
  0.719	19.3	1.1	-5.2	1.6	/	0.9
- O=C(COC(=O)c1ccc(Cl)c(S(=O)(=O)N2CCCCC2)c1)NCC1CCCCC1
  0.689	5.8	2.9	-9.3	0.4	i	0.4
- O=C(NCc1ccco1)C1CCCN(c2nnc(-n3cccc3)s2)C1 (stereo unspecified)
  0.682	1.9	-0.7	-0.4	-6.8	i	-0.7
- Cc1nc(-c2cccc(S(=O)(=O)N3CCOCC3)c2)cs1
  0.658	98.9*	-0.1	-3.5	-4.3	i	6.7
- CCCc1nc(-c2cc3cc(C)ccc3[nH]c2=O)no1
  0.701	-3.7	0.9	-2.9	-0.8	i	-41.5
- CN(Cc1nc2ccccc2[nH]1)C(=O)C1CCC(=O)N(C2CCCC2)C1 (stereo unspecified)
  0.695	-5.6	0.7	-2.0	-0.4	i	5.0
- CC(C)CNC(=O)CSc1nnc(-c2ccccn2)n1Cc1ccccc1
  0.735	-4.8	-9.2	-7.1	1.8	/	5.2
- O=C(CCC(=O)Nc1cccc(C(F)(F)F)c1)NCC1CCCO1 (stereo unspecified)
  0.702	-12.2	6.9	-2.1	3.4	i	-1.1
- COc1ccc(CC(=O)NNC(=O)COc2ccc(F)cc2)cc1S(=O)(=O)N1CCOCC1
  0.704	1.8	2.7	-9.8	2.0	i	1.1
- CCCCOC(=O)C1=C(C)NC(=O)NC1c1ccc([N+](=O)[O-])s1 (stereo unspecified)
  0.693	18.8	1.1	-7.6	0.4	/	7.3
- Cc1csc2nc(CNC(=O)c3cccc(C(F)(F)F)c3)cn12
  0.696	/	2.5	-8.5	0.0	/	-1.6
- O=C(Cn1cc(C(=O)c2ccco2)c2ccccc21)NCc1ccco1
  0.641	6.7	9.1	-6.8	-2.6	/	7.7
- Cc1cccc(C)c1OCc1cc(C(=O)NCc2cn(C)nc2C)no1
  0.73	-6.7	1.4	0.4	-0.5	i	0.5
- Cc1cccc(C(=O)Nc2onc(C)c2C#N)c1
  0.667	96.4*	0.9	0.8	-0.4	/	2.6
- COc1cccc(N2CCN(Cc3nc4scc(-c5ccccc5)c4c(=O)[nH]3)CC2)c1
  0.746	-5.2	1.0	6.1	9.0	i	3.4
- CC(C)(C)[C@@H]1C=C(C(=O)NC2CC2)O[C@H](OCc2ccc(CO)cc2)C1
  /	0.9	-1.0	-14.8	-3.6	i	-1.5
- O=C(O)c1cccnc1C(=O)O
  0.666	0.0	5.1	4.9	-1.6	i	-0.1
- COc1ccc(C2/C(=C(/O)c3ccccc3)C(=O)C(=O)N2CO)cc1 (stereo unspecified)
  0.764	-1.2	0.3	1.7	3.4	/	13.0
- C[C@@H](CN=[N+]=[N-])CN1CC[C@H](NC(=O)OCc2ccccc2)CCC1=O
  /	/	-2.9	2.1	-1.6	i	-0.2
- COc1ccc(S(=O)(=O)N2CCOCC2)c2ccccc12
  0.676	-36.3	-9.7	2.5	0.7	i	1.3
- NCCC(=O)NC[C@H]1O[C@@H](n2cnc3c(N)ncnc32)[C@H](O)[C@@H]1O
  0.685	/	/	8.8	1.7	i	-0.5
- Cc1ccc(Cl)cc1NC(=O)Cn1c(C)csc1=O
  0.711	-5.3	-21.0	-2.5	1.5	i	3.7
- CCOc1cc(CN2CCCC(CO)(Cc3ccc(F)cc3F)C2)ccc1OC (stereo unspecified)
  0.678	-3.0	-2.1	-1.2	0.3	i	2.6
- COc1cc(Cl)c(C)cc1NC(=O)CSc1nnc(-c2ccco2)n1CC(C)C
  0.709	2.6	-3.6	3.6	-1.8	/	1.2
- COc1ccc(-n2cc(-c3ccc(OC(F)F)cc3)[n+]3c2CCCCC3)cc1
  0.692	-16.2	-3.3	-2.2	-2.2	i	2.6
- COc1cccc(/C=C/C(=O)OCC(=O)NC2CC2)c1OC
  0.671	5.9	0.3	-5.7	0.5	i	0.7
- CC(=O)c1cccc(NC(=O)CCc2nnc3ccc(NCc4ccc5c(c4)OCO5)nn23)c1
  0.676	-1.6	4.9	-1.9	4.4	i	2.2
- Cc1nn(-c2ccccc2)c2sc(C(=O)O)cc12
  0.706	32.8	3.3	19.3	1.6	/	1.8
- Cc1nnc(SCC(=O)Nc2nccs2)n1C(C)C
  0.707	4.8	3.1	-3.8	3.6	i	2.0
- Cc1ccc2nc(Cl)cc(=O)n2c1
  /	/	/	-6.2	2.3	i	/
- O=C1NCCN/C1=C\C(=O)c1ccc(F)cc1
  0.691	-4.8	-0.5	-2.9	3.8	i	11.9
- Cc1cc2cc(CCNC(=O)CC(C)(C)C)c(=O)[nH]c2cc1C
  0.717	-14.5	1.7	-7.1	1.4	i	-4.2
- COc1cc(OC)cc(C(=O)NC2CC3CCC(C2)N3Cc2ccco2)c1 (stereo unspecified)
  0.679	/	/	-2.9	-3.1	/	4.9
- O=c1cc(-c2ccccc2)oc2ccc(O)cc12
  0.645	11.0	-2.7	-2.5	0.5	i	1.8
- C/C(=N/NC(=O)c1ccc(Br)s1)c1cccnc1
  /	-4.7	-1.4	-12.2	1.3	i	/
- CCOC(=O)C1(Cc2ccccc2Cl)CCN(Cc2csc(C(C)=O)c2)CC1
  0.689	/	-3.1	-5.0	5.2	i	5.3

A draw from above in order of number of heavy atoms, falling.
The line under a structure holds: Ecoli growth	ALR H2O2 inh	LANA-H2B inh	Beta2AR agonist	HNF4A DNA FP	FGF22 binding	UCH37 inh
- Cc1ccc(N(C(C)C(=O)Nc2cc(Cl)ccc2Oc2ccccc2)S(C)(=O)=O)cc1 (stereo unspecified)
  0.683	3.0	2.1	-2.2	-1.3	i	1.3
- CCOC(=O)C1(Cc2ccccc2Cl)CCN(Cc2csc(C(C)=O)c2)CC1
  0.689	/	-3.1	-5.0	5.2	i	5.3
- O=C(CCC(=O)Nc1cccc(C(F)(F)F)c1)NCC1CCCO1 (stereo unspecified)
  0.702	-12.2	6.9	-2.1	3.4	i	-1.1

Later entries
The line under a structure holds: Ecoli growth	ALR H2O2 inh	LANA-H2B inh	Beta2AR agonist	HNF4A DNA FP	FGF22 binding	UCH37 inh
- c1coc(-c2nc3c([nH]2)CCc2nonc2-3)c1
  0.647	1.8	-0.9	-9.4	11.5	/	-2.5
- Cc1nc(N)nc(N/N=C/c2c(F)cccc2Cl)n1
  /	/	-3.6	7.0	0.5	i	/
- O=c1oc2ccccc2cc1-c1csc(NN=C2CCCC2)n1
  0.672	97.9*	5.5	-11.9	3.8	/	-22.8
- CCNc1ccc(C(=O)OCC)cc1NC(=O)c1cccc(S(=O)(=O)N(C)c2ccccc2)c1
  0.73	-21.3	-4.4	3.9	0.4	i	4.4
- CCCCn1cnc2cc(NCc3ccncc3)ccc21
  0.626	18.6	8.0	-3.3	-0.5	/	1.6
- CCCCN(CC)C(=O)c1cccc(Cl)c1
  0.676	-5.3	-0.3	0.8	0.4	/	2.8
- Cc1ccc(S(=O)(=O)N2CC=C(C(=O)NCc3ccc(F)cc3)CC2)cc1
  0.74	-31.1	-1.6	-4.8	1.8	i	2.7
- COCC(=O)Nc1cc(C(=O)Nc2ccccc2C)ccc1Cl
  0.641	-3.8	-0.5	-3.0	3.5	/	1.3
- CC(C)(C)NC(=O)C(c1ccccc1)N(C(=O)c1ccco1)C1CC1 (stereo unspecified)
  0.672	-4.4	1.3	11.8	2.4	/	9.6
- COP(=O)(OC)c1nc(-c2ccc(C)cc2)oc1N1CCCCC1
  0.626	24.8	4.6	-7.4	1.7	i	-424.6
- CC(=O)c1ccc2c(c1)OCCOCCOc1ccc(C(C)=O)cc1OCCOCCO2
  0.644	-36.2	-6.6	-0.9	5.1	i	4.1
- CCOC(=O)N1CCN(C(=O)C2CCCN(c3nc4ccc(OCC)cc4s3)C2)CC1 (stereo unspecified)
  0.729	4.7	1.2	-7.8	2.5	i	1.2
- CC(NS(=O)(=O)c1ccc(OCC(=O)NCc2ccccn2)cc1)c1ccccc1 (stereo unspecified)
  0.682	-6.2	0.9	0.5	1.2	i	-0.7
- COc1ccccc1-n1c(C)c(C(C)=O)c2cc(O)ccc21
  0.643	7.1	-1.9	1.5	2.2	i	0.3
- COc1ccccc1N1CC(C(=O)Nc2nnc(SC)s2)CC1=O (stereo unspecified)
  0.691	0.1	-3.3	-0.8	0.0	i	0.1
- CC(=O)N(c1ccccc1Cl)S(=O)(=O)c1ccc(Cl)cc1
  0.678	-1.6	4.3	-0.8	5.2	i	1.1
- COc1ccccc1CNC(=O)COc1ccc(C)cc1
  0.654	9.1	0.1	-9.3	-6.6	i	2.1
